High-throughput results: PubChem, several laboratories
UCH37 DUB inh – human UCH37 deubiquitinating enzyme inhibition | Q9Y5K5 | purified proteasome/UCH37, Ub-AMC cleavage fluorescence | inhibition, % (concentration not given with the values) | 330,000 compounds, 0.33% hits | AID 588478;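 active = mean of two replicates above 20%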;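 also: 0% = compound-free wells with enzyme and 100% = wells lacking proteasome; stock transfer was 100 nL into about 20 µL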
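Assay system: Proteasome-bound UCH37. Buffer or medium: pH 7.4 Tris-HCl (50 mM) with ovalbumin, ATP-MgCl2, DTT. Incubation: 30 min preincubation with enzyme, 25 min cleavage at room temperature. Measured by: fluorescence, ex 355 nm, em 460 nm. Read-out basis: percent inhibition. Control set: wells without proteasome as full block, compound-free enzyme plus substrate as uninhibited.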
FGF22 binding – FGF22 (human) thermal shift binding; AID 651658; 340,000 compounds, 1.5% hits; recombinant FGF22 thermal shift, SYPRO orange fluorescence; percent of sucrose octasulfate shift, DMSO zero; calls only at 9.99 µM;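 active = melting point raised past a set limit in the mean and every replicate; three in four hits are not shown here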
ALR inh – human ALR oxidase inhibition via reduced H2O2. purified ALR, DTT oxidation, H2O2 HRP-luminol luminescence. inhibition, % (concentration not given with the values). 290,000 compounds, 3.8% hits;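 active = mean and each replicate at 75% or more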;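 also: stock transfer was 7.5 nL into about 7.5 µL; 0% = neutral wells and 100% = wells with inactivated enzyme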
Target sequence (P55789 whole entry, looked up): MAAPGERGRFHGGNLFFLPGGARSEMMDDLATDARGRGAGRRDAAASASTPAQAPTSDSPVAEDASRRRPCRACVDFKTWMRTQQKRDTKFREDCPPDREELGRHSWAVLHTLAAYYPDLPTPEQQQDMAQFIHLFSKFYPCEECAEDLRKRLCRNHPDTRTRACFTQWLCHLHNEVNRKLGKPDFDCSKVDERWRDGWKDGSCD
B2AR ag – agonists of human beta-2 adrenergic receptor inducing internalization; Am2.2-beta2AR cells, FAP receptor internalization, flow cytometry; reference of the scale not given here; response, % (concentration not given with the values); P07550; 340,000 compounds, 0.43% hits;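 active = response above a set limit, near 3 SD of response in nonfluorescent compounds, cut at about 42% in these data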;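 also: stock transfer was 100 nL into about 11 µL; a reference agonist was the positive control; negative values mostly stem from fluorescent compounds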
Target sequence (P07550 whole entry, looked up): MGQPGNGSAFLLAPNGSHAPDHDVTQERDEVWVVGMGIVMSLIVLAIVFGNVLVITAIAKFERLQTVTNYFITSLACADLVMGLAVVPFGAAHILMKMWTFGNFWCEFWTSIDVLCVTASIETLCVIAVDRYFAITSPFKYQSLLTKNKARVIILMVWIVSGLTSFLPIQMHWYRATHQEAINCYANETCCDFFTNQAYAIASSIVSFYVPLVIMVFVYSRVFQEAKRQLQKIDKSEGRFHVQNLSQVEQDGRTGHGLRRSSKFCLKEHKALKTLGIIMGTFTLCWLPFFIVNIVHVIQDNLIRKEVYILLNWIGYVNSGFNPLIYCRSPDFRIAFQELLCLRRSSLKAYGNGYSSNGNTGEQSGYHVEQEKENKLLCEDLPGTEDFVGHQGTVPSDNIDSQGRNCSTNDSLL
HNF4A DNA FP – change in binding of human HNF4 alpha to DNA | HNF4a-FITC DNA binding, fluorescence polarization, 1 h | activity change, % at 10 µM | 360,000 compounds, 0.3% hits | AID 1224865; in the data active = activity change above about 30%, passing the limit was not always enough;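 also: controls were the assay level and a saturating level of protein; the project sought stronger binding though the title names inhibitors; some compounds called inactive have numbers as strong as hits; positive values seem to mean higher polarization but the record does not say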
Target sequence (P41235 whole entry, looked up): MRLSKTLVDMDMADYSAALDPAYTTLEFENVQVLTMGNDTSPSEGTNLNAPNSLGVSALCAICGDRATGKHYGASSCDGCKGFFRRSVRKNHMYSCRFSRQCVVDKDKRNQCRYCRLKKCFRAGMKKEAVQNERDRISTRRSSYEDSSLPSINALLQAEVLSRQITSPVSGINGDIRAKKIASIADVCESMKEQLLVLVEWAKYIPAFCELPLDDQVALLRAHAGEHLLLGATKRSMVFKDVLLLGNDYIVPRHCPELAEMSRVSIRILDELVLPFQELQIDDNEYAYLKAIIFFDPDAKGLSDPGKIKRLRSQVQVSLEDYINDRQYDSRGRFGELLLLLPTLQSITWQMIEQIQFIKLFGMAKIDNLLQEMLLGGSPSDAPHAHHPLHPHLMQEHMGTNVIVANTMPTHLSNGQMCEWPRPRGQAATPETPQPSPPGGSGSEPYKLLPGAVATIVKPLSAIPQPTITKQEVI
Ecoli growth – blocks Escherichia coli growth; OD600, 23 h; hits give low values; OD600 absorbance (test concentration not listed); 330,000 compounds, 0.21% hits; AID 1053175;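 active = OD600 absorbance below the run mean of sample wells minus 3.6 SD, in any replicate, cut at about 0.56 in these data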;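 also: stock transfer was 300 nL into about 60 µL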
LANA-H2A inh – blocks KSHV LANA binding to histone H2A/H2B. 320,000 compounds, 0.6% hits. Q9QR71. cell-free LANA-H2A/H2B peptide, fluorescence polarization. inhibition, % (no concentration beside the values); in the data active = inhibition mostly above about 10%, no sharp cut-off; inactive = mostly below about 6.7%;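 also: stock transfer was 7.5 nL into about 10 µL; 0% = median of vehicle wells and 100% = median of positive control wells; one replicate is shown; the record names a cut of 25% in any replicate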
The depositor's hits bear a star; i = inactive; / = not tested or not shown. These rows are one share of the data (hit frequency here may not be typical).

UCH37 DUB inh | FGF22 binding | ALR inh | B2AR ag | HNF4A DNA FP | Ecoli growth | LANA-H2A inh | SMILES
0.0 | i | / | -5 | -1.2 | 0.71 | 4.1 | COC(=O)CNc1cccc(C(F)(F)F)c1
7.7 | i | / | 3 | 1.8 | 0.67 | / | OCCN1CCN(c2ncnc3ccc(Br)cc23)CC1
3.3 | i | / | 1 | 0.3 | 0.64 | 2.2 | Cc1nc2ncnn2c(N2CCC(C(=O)NC3CCCC3)CC2)c1Cc1ccccc1
2.3 | i | -4 | 1 | 6.1 | 0.68 | -5.6 | COc1ccccc1N/C(N)=N/c1nc(C(F)(F)F)cc(=O)[nH]1
0.8 | / | 63 | -9 | -1.0 | 0.74 | -0.1 | COc1ccc(N2CCN(C(=O)c3c(C)nn(-c4ccccc4)c3C)CC2)cc1
/ | i | 6 | 3 | 4.2 | / | -0.7 | CCOc1ccccc1/C=N/N1CCN(Cc2ccccc2)CC1
7.0 | i | / | 8 | 0.6 | 0.72 | -0.8 | Cc1ccc(CC2C(=O)N(c3ncccn3)C(=O)C2C)cc1 (centres undefined)
0.4 | / | 2 | -3 | 3.1 | 0.71 | 3.2 | CC(C)=CC(=O)Nc1nnc(C(C)C)s1
-158 | / | -3 | 8 | 3.8 | 0.69 | -0.9 | COC(=O)c1c(C(=O)OC)n(CCCN)c2ccc(C)cc12
-1.1 | i | 0 | -12 | 0.7 | 0.69 | -1.1 | O=C(Nc1ccc2nc3n(c(=O)c2c1)CCCC3)c1ccccc1[N+](=O)[O-]
i | / | -12 | -13 | -2.2 | 0.68 | 1.9 | O=c1oc2ccccc2c2c1SC(C(F)(F)F)C2 (centres undefined)
-2.9 | i | 6 | -2 | 1.4 | 0.72 | -1.2 | CCC1=Nc2cc(C(=O)O)ccc2Sc2ccccc21
/ | i | 19 | -1 | -1.5 | / | 1.6 | C/C(CC(=O)Nc1ccc2c(c1)OCO2)=N\NC(=O)OC(C)(C)C
7.1 | i | -11 | 7 | -0.9 | 0.71 | 3.1 | CCOC(=O)c1c(NC(=O)c2ccc(S(=O)(=O)N(C)CC3CCCO3)cc2)sc2c1CCN(C)C2 (centres undefined)
5.6 | i | -5 | -9 | -1.3 | 0.7 | 2.9 | O=C(CCNC(=O)c1ccccc1Cl)Nc1nc2ccccc2[nH]1
2.0 | i | 0 | 3 | 0.2 | 0.66 | 5.4 | Cc1cccc(N2CC(C(=O)Nc3ccc(S(=O)(=O)N4CCCCC4)cc3)CC2=O)c1C (centres undefined)
4.8 | / | / | -3 | -1.4 | 0.65 | / | O=c1cc(-c2ccccc2)c2c([nH]1)CCCC2
4.5 | i | 12 | 13 | 2.9 | 0.68 | 8.5 | O=C(Nc1nnc(Cc2ccc(Cl)cc2)s1)c1cccnc1
5.1 | / | -17 | -3 | -2.6 | 0.71 | 1.4 | O=C(Nc1nccs1)c1ccc2nccnc2c1
4.1 | i | -14 | 0 | 1.5 | / | -0.7 | C#CCOCCOCCOCCNc1nc(N2CCN(C(=O)Cn3cc(CCCN=C(N)N)nn3)CC2)nc(N2CCN(C(=O)[C@H](C(C)C)n3cc(CCO)nn3)CC2)n1
-1.0 | / | 13 | 0 | -4.3 | 0.7 | 2.8 | COC(=O)c1ccccc1NC(=S)NC(NC(=O)c1ccccc1[N+](=O)[O-])C(Cl)(Cl)Cl (centres undefined)
2.7 | i | 7 | 3 | -0.7 | 0.62 | 2.5 | CC(=O)N1c2ccc(S(=O)(=O)N3CCCC(C(=O)N4CCCC(C)C4)C3)cc2CC1C (centres undefined)
/ | i | -2 | -2 | -1.8 | / | -2.5 | O=C(c1ccco1)N1CCN(Cc2ccc(F)cc2)CC1
3.4 | i | / | 0 | 1.7 | 0.65 | / | CCCN(CC(=O)Nc1ccccc1C)C(=O)Cc1c[nH]c2ccccc12
-1.0 | i | 2 | -3 | -1.1 | / | -1.8 | C=CC[C@H](CC(=O)N[C@H](CO)Cc1ccccc1)C(=O)N[C@@H](COC(=O)[C@@H](CC=C)Cc1ccc(F)cc1)Cc1c[nH]c2ccccc12
/ | / | 15 | -6 | -2.1 | / | -1.0 | O=C(CCCCCNC(=O)c1ccccc1)N/N=C/c1ccccc1O
3.1 | i | -16 | -2 | 0.4 | 0.75 | 5.0 | CC(C)(O)C#Cc1ccc(C(=O)N2CCC(CCC(=O)NC3CC3)CC2)cc1
5.4 | i | -9 | -17 | -2.4 | 0.69 | -3.7 | CN(C)CCNC(C(=O)Nc1cccc(C(F)(F)F)c1)c1ccccc1 (centres undefined)
-2.6 | / | 19 | -12 | -1.3 | 0.67 | -2.3 | Cc1ccsc1C(=O)OCc1nc2ccccc2c(=O)[nH]1
0.6 | i | 5 | 5 | 0.8 | 0.68 | -0.5 | Cc1cc(C(C)(C)C)oc1C(=O)N(CC(=O)NC1CCCC1)c1ccc(F)cc1
-0.6 | i | / | -4 | -1.2 | 0.79 | 4.8 | C=CCn1c(=O)c2ccc(C(=O)NCc3ccccc3)cc2n(Cc2ccc(C)cc2)c1=O
-2.1 | i | -37 | -29 | 2.7 | 0.73 | 0.6 | Brc1cccc(-c2nnc(SCc3ccon3)n2-c2ccccc2)c1
2.4 | i | 3 | 5 | 1.0 | 0.69 | -3.5 | C=CCn1c(SCC(=O)NC(N)=O)nnc1-c1cc2c(s1)CCC(CC)C2 (centres undefined)
4.7 | i | 0 | -16 | 1.8 | 0.67 | -2.4 | O=C(c1cc(COc2ccc(F)cc2Cl)on1)N1CCN(C2CCCC2)CC1
5.8 | / | / | -1 | 1.4 | 0.7 | -6.1 | Cc1ccc(N(CC(=O)Nc2cc(Cl)ccc2Oc2ccccc2)S(C)(=O)=O)c(C)c1
0.1 | i | 6 | -2 | -2.9 | 0.7 | -1.2 | CSc1nnc(C)c(=O)n1COC(=O)COc1ccc(Cl)cc1
-1.0 | i | -3 | -1 | 3.4 | 0.66 | 0.6 | Cc1cc(C)cc(NC(=O)C(=O)NCC2CCCN2S(=O)(=O)c2cccs2)c1 (centres undefined)
5.2 | i | -22 | 3 | 2.9 | 0.66 | 0.0 | COc1ccc(CNC(=O)[C@H](Cc2c[nH]c3ccccc23)NC(C)=O)cc1OC
3.5 | i | / | 6 | -0.2 | 0.7 | -0.8 | COc1ccc(Cl)cc1S(=O)(=O)N1CCN(C)CC1
-0.4 | i | / | 4 | -2.3 | 0.67 | 2.9 | COCCNC(=O)C(c1ccc(C)cc1)N(Cc1ccco1)C(=O)CCC(=O)Nc1ccccn1 (centres undefined)
2.3 | / | -6 | 0 | -1.7 | 0.74 | -5.3 | Cc1c(Cl)c([N+](=O)[O-])nn1CC(=O)NC(C)C1CC2CCC1C2 (centres undefined)
5.5 | / | / | 2 | -3.9 | 0.78 | 0.3 | Cc1ccc2nc(SCC(=O)N3c4ccccc4CC3C)c(C)cc2c1 (centres undefined)
-2.8 | i | -5 | -7 | 1.1 | 0.7 | 5.3 | COC(=O)c1c(-c2ccc(SC)cc2)sc2ccc(OC)cc12
3.8 | i | -8 | 2 | -0.8 | 0.63 | 1.0 | Cc1ccc(S(=O)(=O)CCC(=O)OC(C)C(=O)c2c(C)[nH]c3ccccc23)cc1 (centres undefined)
3.8 | / | 0 | -2 | 7.7 | 0.66 | 0.4 | CC(=O)Nc1cnn(Cc2ccc(Br)cc2)c1

Ordered by value in LANA-H2A inh (highest first): some entries from above.
Molecule | LANA-H2A inh
O=C(Nc1nnc(Cc2ccc(Cl)cc2)s1)c1cccnc1 | 8.5
COC(=O)c1c(-c2ccc(SC)cc2)sc2ccc(OC)cc12 | 5.3
Cc1cc(C(C)(C)C)oc1C(=O)N(CC(=O)NC1CCCC1)c1ccc(F)cc1 | -0.5

(cont.)
UCH37 DUB inh | FGF22 binding | ALR inh | B2AR ag | HNF4A DNA FP | Ecoli growth | LANA-H2A inh | SMILES
3.5 | i | / | 8 | -1.7 | 0.67 | -0.3 | COc1ccccc1NC(=O)C(C)Nc1ccc(C)c(Cl)c1 (centres undefined)
3.8 | / | -17 | 3 | -3.0 | 0.7 | 3.7 | COC(=O)CC1=C(C(=O)OC)C(c2cccs2)C(C#N)=C(N)O1 (centres undefined)
/ | i | / | -3 | 2.4 | / | / | NC(=Nc1nc(-c2ccccn2)cc2ccccc12)c1ccccn1
0.0 | / | 3 | 1 | -4.0 | 0.74 | 3.9 | CC1CCN(S(=O)(=O)c2ccc3[nH]c(=O)cc(C(=O)O)c3c2)CC1
-0.6 | i | 4 | 3 | -1.6 | 0.66 | 4.8 | CCSc1ccccc1-c1nc(-c2ccncc2)no1
1.7 | / | -3 | 3 | -3.0 | 0.71 | 2.5 | COCCOC(=O)C1=C(C)NC(=O)NC1c1ccc(OC(=O)c2ccco2)c(OC)c1 (centres undefined)
1.2 | / | / | -5 | 1.7 | 0.78 | 1.0 | CCCC(=O)C1C(=O)CC(C)(C)C(c2cc(C)no2)C1=O (centres undefined)
3.3 | i | -5 | 2 | 5.4 | 0.73 | -2.0 | CS(=O)(=O)N(CC(=O)Nc1ccc(F)cc1F)C1CCCCC1
1.1 | i | -7 | 6 | -0.4 | 0.66 | -1.7 | Cc1cccc(C(=O)N2CCCCCC2)c1[N+](=O)[O-]
-1.4 | i | / | 2 | -1.6 | 0.71 | 1.4 | COCC(=O)N(c1ccccc1)C(C)C(=O)OC (centres undefined)
-1.1 | / | -9 | 4 | -0.2 | 0.71 | 0.4 | Cc1cc(=O)n(CCc2ccccc2)c(O)c1C#N
3.1 | i | -5 | -8 | 4.8 | 0.69 | -1.9 | O=C(Nc1ccc2c(c1)OCO2)C1CCCN1C(=O)Nc1ccccc1 (centres undefined)
2.4 | i | 13 | -4 | 4.1 | 0.71 | -5.1 | N#Cc1cccc(NC(=O)CCN2C(=O)C3CCCCC3C2=O)c1 (centres undefined)
-0.5 | / | 4 | 4 | -0.3 | 0.76 | 2.4 | O=C(CCC(=O)OCCCC(F)(F)C(F)(F)F)Nc1ccc(Cl)cc1Cl
-1.4 | i | 31 | -6 | 1.8 | 0.6 | -3.5 | CC(=O)N1c2ccc(S(=O)(=O)NCCC(=O)NCc3ccc(N(C)C)cc3)cc2CC1C (centres undefined)
6.0 | i | -3 | -12 | 0.2 | 0.7 | 1.6 | O=C(Nc1ccc(Br)cc1)C1CC(O)CN1C(=O)OCc1ccccc1 (centres undefined)
4.3 | i | 66 | 5 | -0.5 | 0.69 | 3.2 | CC1CN(Cc2ccccc2)c2nc3c(c(=O)[nH]c(=O)n3C)n2C1 (centres undefined)
3.9 | / | -5 | 4 | -3.0 | 0.71 | -3.9 | C=CCN1C(=O)C(O)(CC(=O)c2ccc(OC)cc2OC)c2cc(Br)ccc21 (centres undefined)
-176 | i | 0 | -14 | -2.3 | 0.64 | -4.0 | CC(C)C1Oc2cc3oc(=O)ccc3cc2C1=O (centres undefined)
-5.7 | / | -18 | -7 | -2.5 | 0.75 | 1.4 | CCOc1ccc(Nc2cc(=O)n(C)c(=O)n2C)cc1
2.6 | i | 1 | -3 | -1.3 | 0.67 | 5.3 | CC1Cc2ccccc2N1S(=O)(=O)c1cccc(C(=O)OCC(=O)NCc2ccco2)c1 (centres undefined)
6.3 | i | -14 | -7 | -0.6 | 0.67 | -5.0 | CC(C)CCN1CCN(Cc2ccc(Sc3nncn3C)o2)CC1CCO (centres undefined)
-4.7 | / | -1 | 7 | -9.4 | 0.7 | -4.5 | O=c1c2ccccc2oc2ccc(-c3ccc4[nH]ccc4c3)cc12

Quoted at random: 3 records from the list, in no set order.
UCH37 DUB inh | FGF22 binding | ALR inh | B2AR ag | HNF4A DNA FP | Ecoli growth | LANA-H2A inh | SMILES
-4.7 | / | -1 | 7 | -9.4 | 0.7 | -4.5 | O=c1c2ccccc2oc2ccc(-c3ccc4[nH]ccc4c3)cc12
-5.7 | / | -18 | -7 | -2.5 | 0.75 | 1.4 | CCOc1ccc(Nc2cc(=O)n(C)c(=O)n2C)cc1
2.6 | i | 1 | -3 | -1.3 | 0.67 | 5.3 | CC1Cc2ccccc2N1S(=O)(=O)c1cccc(C(=O)OCC(=O)NCc2ccco2)c1 (centres undefined)
